MT1-MMP reporter: inhibitors of MT1-MMP promoter transcription, cell-based, luciferase reporter, luminescence (AID 618); 0.62% of 87,000 active; MT1-MMP promoter luciferase reporter cells, luminescence; calls from a first round at 10 µM; hits with a dose series show EC50 in µM;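 active means over half of the reporter light lost at 10 µM or EC50 under 50 µM; inactive means the rest and hits that failed the dose series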;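 further: actives suppress MT1-MMP promoter-driven transcription so potencies describe inhibitors; HT1080 fibrosarcoma cells; overnight exposure; toxic or luciferase-blocking compounds were not removed from the actives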
Hsc70 ATP site: Hsc70 inhibitors, probe displacement, primary screen, biochemical, fluorescence polarization (AID 568); one-dose displacement, % at 20 µM; IC50 in µM for titrated hits; 83,000 tested, under 10 active; Hsc70 fluorescence polarization, probe displacement; higher % means a stronger effect; strong numbers were not always called active;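 active means displacement above 50% without optical interference and an IC50 on retest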;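 further: ATPase domain with a fluorescein-tagged ATP probe; 0% = vehicle and 100% = excess ADP; read after one hour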
WNV protease inh: WNV NS2B-NS3 proteinase inhibition; P06935; z-score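 (tested at a level between 10 and 100 µM)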; WNV NS2B-NS3 protease, fluorogenic substrate Ex360/Em465; active compounds read low; 0.18% of 65,000 active; AID 577;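 active means z-score at -3 or under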;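 further: score is relative to mean and spread of the compound wells of a plate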
Target sequence (P06935 1371-1501 limits assumed): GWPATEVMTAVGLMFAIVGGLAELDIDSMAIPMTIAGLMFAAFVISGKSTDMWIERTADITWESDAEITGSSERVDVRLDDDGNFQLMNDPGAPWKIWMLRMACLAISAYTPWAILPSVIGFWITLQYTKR
Target sequence (P06935 1502-1679 limits assumed): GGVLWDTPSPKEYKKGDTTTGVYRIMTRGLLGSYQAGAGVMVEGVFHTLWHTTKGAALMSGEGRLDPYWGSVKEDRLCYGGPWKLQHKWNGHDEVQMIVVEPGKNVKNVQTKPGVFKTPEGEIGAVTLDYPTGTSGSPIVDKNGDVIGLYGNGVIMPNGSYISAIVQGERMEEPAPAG
An asterisk follows results filed as active; i = inactive; · = no result given. This is a subset; count on the stated rates, not on these rows.

Every second line gives: MT1-MMP reporter | WNV protease inh | Hsc70 ATP site
COc1ccc(C(=O)Nc2ccccc2C(=O)NCCN2CCOCC2)cc1
 : i | 0.74 | 1.4%
COc1ccc(-c2nnc3ccc(SCC(=O)N4CCN(c5ccccc5)CC4)nn23)cc1OC
 : i | 0.88 | 0.0%
OC(COc1ccc(C2C=CCC2)cc1)CN1CCCCC1 (stereo unspecified)
 : i | 1.1 | -15%
CCC1(C(=O)O)NC(c2cccc(OC)c2O)C2C(=O)N(c3ccccc3)C(=O)C21 (stereo unspecified)
 : i | 0.01 | 2.5%
COC(=O)Cn1c(CN2CCc3ccccc3C2)nc2c1c(=O)n(C)c(=O)n2C
 : i | -0.58 | 6.6%
COC(=O)CSc1nc2ncccc2[nH]1
 : i | · | -3.9%
CC1(C)OC(=O)C(=CNc2ccc(F)cc2)C(=O)O1
 : i | -0.33 | 6.2%
O=C(COc1ccc2ccc(=O)oc2c1)Nc1ccc2c(c1)OCCO2
 : i | 0.23 | 2.2%
CC(=O)Nc1ccc(S(=O)(=O)N2CCC(NC(=O)c3ccco3)CC2)cc1
 : i | 1.1 | 3.6%
COc1ccc(S(=O)(=O)Nc2ccccn2)cc1OC
 : i | 1.1 | 1.8%
CC(NC(=O)C1C(=O)N(CCO)C2(C)CC1c1ccccc1O2)c1ccccc1 (stereo unspecified)
 : i | 0.53 | -49%
CCOC(=O)CNC(=O)CSc1nnc(-c2cccc(OC)c2)n1CC
 : i | 0.19 | -0.3%
c1ccc(CSc2nnnn2-c2ccc3c(c2)OCCO3)nc1
 : i | 0.35 | 5.1%
CC(O)c1cc2c(cc1NC(=O)c1cnn3c1NC(c1ccco1)CC3C(F)(F)F)OCO2 (stereo unspecified)
 : i | 1 | -0.9%
O=C(Cn1ccc2ccccc2c1=O)N1CCN(c2cccc(Cl)c2)CC1
 : i | 0.1 | -0.2%
C=CCN1C(c2ccc(OCC)cc2)=CS/C1=C(\C#N)c1nnc2n1CCCCC2
 : i | -0.86 | -5.6%
COc1ccccc1N1CCN(S(=O)(=O)c2ccc3c4c(cccc24)C(=O)N3)CC1
 : i | -0.97 | -1.2%
CC(C)CCSc1nnc(Cn2c(=O)sc3ccccc32)n1C
 : i | 0.2 | -2.9%
Cn1c(C(=O)N2CCN(C3CCCCC3)CC2)cc2c(=O)n(C)c3ccccc3c21
 : i | -0.88 | 1.0%
COc1ccc(CCN2C(=O)c3ccncc3C2=O)cc1OC
 : i | · | 3.5%
COc1ccc(N2Nc3n[nH]c(N)c3N2)cc1
 : i | · | 2.3%
CC(C)c1ccc(NC(=O)C(c2ccc3c(c2)OCO3)N2CCN(C(=O)c3ccco3)CC2)cc1 (stereo unspecified)
 : i | -0.17 | -5.4%
Cc1cc(C)c(C#N)c(SCc2ccc(C#N)cc2)n1
 : i | -0.13 | -0.3%
CC1(C)Cc2c(C#N)c(NCCc3ccccc3)nc(-c3ccco3)c2CO1
 : i | -0.33 | -16%
Cc1cccc(N2C(=O)CC(N3CCN(c4ccccc4)CC3)C2=O)c1 (stereo unspecified)
 : i | · | 0.4%
Cc1nc2sc3c(c2c(=O)[nH]1)CCC3
 : i | 0.02 | -7.1%
CCSC1=NC(=O)/C(=C2/C=Cc3ccccc3N2CC)S1
 : i | 0.46 | -10%
Cn1c2ccccc2c2ncn(CCCN3CCOCC3)c(=O)c21
 : i | 0.08 | 3.6%
O=C(CCCCn1c(=O)[nH]c2ccccc2c1=O)N1CCN(c2cccc(C(F)(F)F)c2)CC1
 : i | -1.8 | -0.3%
CCCOc1ccccc1C1CC(=O)NC2=C1C(=O)CCC2 (stereo unspecified)
 : i | 0.22 | 13%
Cn1c(SCC(=O)Nc2ccc3c(c2)OCCO3)nnc1-c1ccccn1
 : i | -0.67 | 1.2%
O=C(NCCCN1CCCC1)Nc1cccc2ccccc12
 : i | -1.1 | -0.7%
Cc1c(C(=O)NCc2ccccn2)sc2nc(-c3ccccc3)cn12
 : i | 0.65 | -1.9%
CCOc1ccc(-n2cnnn2)cc1S(=O)(=O)Nc1c(C)cccc1C
 : i | -0.21 | 7.9%
COc1ccc(OC)c(C(=O)c2nc3c(n2O)CCCCC3)c1
 : i | 0.75 | 0.7%
C=C(C)COc1ccc(-c2nc(N)ncc2Oc2ccc(OC)cc2)c(O)c1
 : i | -0.43 | -8.4%
Cc1cc(S(=O)(=O)N2CC(=O)N(CCc3ccccc3)C(=O)C2)ccc1F
 : i | -0.69 | 3.7%
O=C(c1ccc2c(c1)OCCO2)C1CCN(S(=O)(=O)c2ccccc2F)CC1
 : i | -0.43 | -4.7%
O=C(O)c1cccc(NC(=O)C2CCCO2)c1 (stereo unspecified)
 : i | · | -1.3%
Cc1ccc2c(c1)N(CC(=O)OC(CC(C)C)C(=O)NC1CCCC1)C(=O)CO2 (stereo unspecified)
 : i | -1 | 1.2%
CN=C1c2cc3c(Br)c(OC)ccc3n2CCN1C
 : i | -0.09 | -1.3%
O=c1c2c(n3nnnc3n1-c1ccccc1)-c1ccccc1CC21CCCC1
 : i | -0.82 | -1.6%
Cn1c(=O)oc2cc(C(=O)c3ccccc3)ccc21
 : i | -0.48 | -5.2%
CC(C)(C)c1ccc(Cn2nnc3c(=O)[nH]c(C4CCN(C(=O)Cc5cccs5)CC4)nc32)cc1
 : i | -1.1 | -11%
COc1ccc(C(=O)Nc2ccccc2N2CCN(C(=O)C(C)C)CC2)cc1Cl
 : i | · | 1.3%
Cc1cc(NC(=O)CCC(=O)N(Cc2ccco2)C(C)(C)C(=O)NC2CCCCC2)no1
 : i | · | 0.5%
Cc1cc(=O)[nH]c(SCC(=O)N2CCN(C(c3ccccc3)c3ccccc3)CC2)n1
 : i | -0.2 | 3.1%
O=S(=O)(NCC(O)COCc1ccco1)c1cccs1 (stereo unspecified)
 : i | -0.26 | 1.7%
COc1ccc(OC)c(S(=O)(=O)Nc2ccccc2SC)c1
 : i | 0.64 | -1.0%
COc1cccc(/C(O)=C2/C(=O)C(=O)N(CCN(C)C)C2c2ccc(Br)cc2)c1 (stereo unspecified)
 : i | -0.67 | -7.2%
CCn1c(SCc2nc3ccccc3[nH]2)nnc1-c1cnccn1
 : i | -0.43 | 6.2%
Nc1ccc2c3c(cccc13)CC2
 : i | 0.55 | -2.6%
Cc1ccc(Cn2c(CN3CC(C)OC(C)C3)nc3c2c(=O)n(C)c(=O)n3C)cc1 (stereo unspecified)
 : i | -0.41 | -6.0%
CC1CCCCC1NC(=O)CCS(=O)(=O)c1cccc2nonc12 (stereo unspecified)
 : i | -0.58 | -4.3%
C1CCN(c2nc3nonc3nc2N2CCCC2)C1
 : i | -0.19 | 1.6%
COc1ccc(OC)c(S(=O)(=O)N2CCC(C(=O)NCc3ccccc3)CC2)c1
 : i | 1.3 | -0.9%
N#CC1=C(N)OC2=C(C(=O)CC(c3ccco3)C2)C1c1ccc(OCc2c(F)cccc2Cl)cc1 (stereo unspecified)
 : i | · | -4.0%
Cc1cc(C)c2c(=O)[nH]n(C(C)C)c2n1
 : i | -1.2 | -4.6%
CCCS(=O)(=O)N1CCN(C(=O)CCC2CCCC2)CC1
 : i | 0.81 | 0.3%
CCc1ccc(NS(=O)(=O)c2ccc3[nH]cc(C(=O)NCC4CCCO4)c(=O)c3c2)cc1 (stereo unspecified)
 : i | -2.3 | -3.0%

(next part)
Every second line gives: MT1-MMP reporter | WNV protease inh | Hsc70 ATP site
CCOCCCNC(=O)c1c(C)c(C(=O)OCC)n(C)c1C
 : i | 1.1 | 3.2%
O=P(Cc1nnco1)(c1ccccc1)c1ccccc1
 : i | 0.15 | -5.5%
Cc1ccc(S(=O)(=O)N2CCCC(C(=O)NCCc3ccc4c(c3)OCO4)C2)cc1 (stereo unspecified)
 : i | -0.08 | -4.3%
CCC(=O)c1ccc(OCC(O)Cn2c(C)nc3ccccc32)cc1 (stereo unspecified)
 : i | 0.93 | 0.3%
CCCNCc1cc(Cl)c(OCC)c(Cl)c1
 : i | · | 0.3%
O=C(O)CCn1c(-c2ccccc2)cc2c1CCCC2=O
 : i | 0.57 | 0.5%
O=S(=O)(NCC(c1cccnc1)N1CCOCC1)c1cccs1 (stereo unspecified)
 : i | 0.96 | -4.0%
CCOC(=O)N1CCC(NC(=O)C(Cc2ccccc2)NC(=O)c2ccco2)CC1 (stereo unspecified)
 : i | 0.8 | 2.8%
CCC(C)N(C)Cc1cccc(C2(O)CCN(S(=O)(=O)c3ccc(F)cc3)CC2)c1 (stereo unspecified)
 : i | -1.4 | -1.9%
CCCCCc1nc2c(=O)n(C)c3ccccc3c2o1
 : i | -0.88 | -0.1%
N#Cc1c(NCCN)nc(-c2ccco2)c2c1CCCC2
 : i | · | -5.0%
O=C(Nc1ccc(F)c(Cl)c1)c1ccc2c(=O)n3c(nc2c1)CCCCC3
 : i | -1.2 | 1.0%
COC(=O)Cn1nc(C)c2ccccc2c1=O
 : i | · | 2.2%
CCOC(=O)C1CCN(C(=O)CN(c2ccc(OC)cc2)S(=O)(=O)c2c(C)noc2C)CC1
 : i | 1.5 | 4.7%
CCOC(=O)Cn1c2c(c(-c3ccccc3OC)cc1=O)CCCC2
 : i | -0.28 | 4.3%
Cc1cc(C)c(S(=O)(=O)n2nc(C)c(Br)c2C)c(C)c1
 : i | -0.1 | -11%
COc1ccc(C(=O)CSc2nnnn2Cc2ccccc2)cc1
 : i | 0.44 | -3.8%
c1coc(Cn2c(-c3ccco3)nc3ccccc32)c1
 : i | 0.08 | -9.7%
CCN(CC(=O)NC1CCS(=O)(=O)C1)C(=O)COc1ccccc1-c1ccccc1 (stereo unspecified)
 : i | 1.3 | 1.9%
CC(C)c1ccccc1NC(=O)c1cnccn1
 : i | 0.86 | 11%
Cc1ccc2cccc(NC(=O)C(F)(F)F)c2n1
 : i | 1.7 | -3.1%
Cc1cc(N2CCN(c3cccc(C(F)(F)F)c3)CC2)n2nc(C)nc2n1
 : i | -0.48 | -4.0%
O=C(O)CN1C(=O)SC(Nc2ccccc2)C1=O (stereo unspecified)
 : i | · | -0.6%
O=C1CC(c2ccccc2)CC(O)=C1C=NCCN1CCOCC1 (stereo unspecified)
 : i | -0.4 | 6.8%
COc1ccc(-c2nnc(CSc3nc4ccccc4c(=O)n3CC(C)C)o2)cc1OC
 : i | -0.76 | 1.5%
CNc1nnc(-c2cc3ccccc3oc2=O)s1
 : i | -1.1 | 42%
CCOC(=O)N1CCC2(O)CCCCC2C1c1ccc(F)cc1 (stereo unspecified)
 : i | 0.72 | -2.5%
O=S(=O)(Nc1nc2ccccc2nc1NCc1ccco1)c1ccc(Cl)cc1
 : i | 0.38 | -2.6%
Cc1ccc(S(=O)(=O)NCC(c2ccccc2)N2CCN(CCC#N)CC2)cc1 (stereo unspecified)
 : i | 0.0034 | 1.5%
N=c1c(C(=O)NC2CCCCC2)cc2c(=O)n3ccccc3nc2n1CCN1CCOCC1
 : i | -0.48 | 1.6%

Structural class, the entries above with a COOH group
Every second line gives: MT1-MMP reporter | WNV protease inh | Hsc70 ATP site
CCC1(C(=O)O)NC(c2cccc(OC)c2O)C2C(=O)N(c3ccccc3)C(=O)C21 (stereo unspecified)
 : i | 0.01 | 2.5%
O=C(O)c1cccc(NC(=O)C2CCCO2)c1 (stereo unspecified)
 : i | · | -1.3%
O=C(O)CCn1c(-c2ccccc2)cc2c1CCCC2=O
 : i | 0.57 | 0.5%
O=C(O)CN1C(=O)SC(Nc2ccccc2)C1=O (stereo unspecified)
 : i | · | -0.6%

Quoted at random: 3 compounds from above
Every second line gives: MT1-MMP reporter | WNV protease inh | Hsc70 ATP site
N=c1c(C(=O)NC2CCCCC2)cc2c(=O)n3ccccc3nc2n1CCN1CCOCC1
 : i | -0.48 | 1.6%
COc1ccc(C(=O)CSc2nnnn2Cc2ccccc2)cc1
 : i | 0.44 | -3.8%
CNc1nnc(-c2cc3ccccc3oc2=O)s1
 : i | -1.1 | 42%

New compounds follow.
Every second line gives: MT1-MMP reporter | WNV protease inh | Hsc70 ATP site
COCCOC(=O)c1c(C)nc(SCC(=O)Nc2ccc(OC)cc2)c(C#N)c1-c1ccco1
 : i | -0.82 | -0.5%
Cn1c(Cc2ccccc2)nnc1SCCC(=O)Nc1ccccc1
 : i | -1.2 | -1.3%
c1ccc(-n2c(-c3ccncc3)nnc2N2CCOCC2)cc1
 : i | -0.79 | 4.8%
CCn1c(=N)c(C(=O)NCc2cccnc2)cc2c(=O)n3cccc(C)c3nc21
 : i | 2.4 | -0.7%
O=c1[nH]c2ccccc2n1CCCOc1ccccc1
 : i | -0.19 | -1.1%
COc1cccc(CNCCOCCO)c1OC
 : i | -1.4 | 5.3%
O=C(CSc1nnc(-c2c[nH]c3ccccc23)n1CC1CCCO1)Nc1ccc2c(c1)OCCO2 (stereo unspecified)
 : i | · | 0.5%
CCOC(=O)N1CCN(C(=O)CS(=O)Cc2nc(-c3cccc(C)c3)oc2C)CC1 (stereo unspecified)
 : i | -0.09 | 3.0%
Nc1c(C(=O)OCC2CCCO2)c2nc3ccccc3nc2n1-c1ccc2c(c1)OCCO2 (stereo unspecified)
 : i | -0.3 | -1.2%
COC(=O)[C@H]1CCCN1C(=O)Nc1cccc(Oc2c(F)c(F)c(F)c(F)c2F)c1
 : i | 0.06 | -0.1%
O=C(CCN1CCN(c2ccc(F)cc2)CC1)Nc1ccccc1F
 : i | -0.08 | -12%
O=C(COc1ccccc1F)c1ccc(O)cc1O
 : i | -0.42 | -2.7%
Cc1cc(C(=O)OCC(=O)NCCCN2CCCC2=O)c2ccccc2n1
 : i | · | -0.4%
CCCc1cc(Nc2cccc(OCC)c2)n2ncnc2n1
 : i | -0.2 | -0.8%
O=C(CNC(=O)c1ccco1)OCC(=O)c1ccc2ccccc2c1
 : i | · | 0.5%

From PubChem BioAssay
